Beta cell apopt – inhibitors of cytokine-induced beta cell apoptosis, primary screen, luminescence; INS-1E cytokine-induced death, ATP luminescence, 48 h; percent of positive-control rescue, neutral wells zero; protection from apoptosis, % (test concentration not listed); 0.8% of 300,000 active; AID 435005, 2010;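 active = all replicates at 75% or more, or half of them and the mean; inconclusive = half reach 75% but not the mean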;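 also: 0% = cytokine-treated negative control wells and 100% = positive control rescue; higher means more ATP so stronger rescue from cytokine killing; wells of about 40 µL received 100 nL stock; the first replicate is given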
ALR inh – inhibitors of human ALR sulfhydryl oxidase, primary screen, biochemical, H2O2 detection, HRP-luminol luminescence, single point; inhibition, % (test concentration not listed); FAD-linked sulfhydryl oxidase ALR (Homo sapiens), P55789; AID 485317, 2010; purified ALR, DTT oxidation; 3.8% of 290,000 active;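 active = mean and each replicate at 75% or more; inconclusive = only one of the two met; inactive = neither met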;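 also: stock transfer was 7.5 nL into about 7.5 µL; 0% = neutral wells and 100% = wells with inactivated enzyme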
Target sequence (P55789 whole entry, looked up): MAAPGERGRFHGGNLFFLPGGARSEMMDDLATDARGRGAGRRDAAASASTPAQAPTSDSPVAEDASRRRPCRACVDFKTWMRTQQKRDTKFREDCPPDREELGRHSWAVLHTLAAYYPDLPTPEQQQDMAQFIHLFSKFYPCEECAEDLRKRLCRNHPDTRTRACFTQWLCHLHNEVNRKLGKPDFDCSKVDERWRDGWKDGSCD
A1 inh – caspase 3/7 activation in MEF A1-2A-BIM cells, primary screen, A1 inhibitor project, cell-based, luminescence, HTS | Caspase-Glo 3/7 luminescence, 3 h; percent of clofoctol response, vehicle zero | caspase activation, % (no concentration beside the values) | 0.066% of 330,000 active;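 active = over half of replicate activation scores above 10%, or exactly half above 10 with the replicate mean above 10; inconclusive = replicate mean below 10 yet half the replicates above 10; inactive = over half of replicates below 10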;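 also: wells of about 30 µL received 50 nL stock; many hits fall short of the cut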
rRNA inh HTS – reduced GFP signal of wild-type E. coli, primary screen, bacterial rRNA inhibitor project, GFP/RFP fluorescence, OD600, single point; E. coli WT GFP vs humanized-ribosome RFP mutants, 24 h; active compounds read low; DMSO median 0, no signal -100; GFP signal change (wild-type ribosome), % (test concentration not listed); 1.6% of 350,000 active; AID 720706, 2013;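 active = significant combined selectivity score with lowered wild-type GFP, culture density cut under 30%, mutant RFP and density less affected; inactive = any of these conditions unmet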; also: one replicate is shown; some compounds called inactive have numbers as strong as hits
B2AR ag – beta2AR agonists driving receptor internalization, primary screen, cell-based, FAP fluorogen, flow cytometry; 0.43% of 340,000 active; Am2.2-beta2AR cells; reference of the scale not given here; AID 504454, 2011; response, % (test concentration not listed); Beta-2 adrenergic receptor (Homo sapiens), P07550;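 active = response above a set limit, near 3 SD of response in nonfluorescent compounds, cut at about 42% in these data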;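 also: stock transfer was 100 nL into about 11 µL; a reference agonist was the positive control; negative values mostly stem from fluorescent compounds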
Target sequence (P07550 whole entry, looked up): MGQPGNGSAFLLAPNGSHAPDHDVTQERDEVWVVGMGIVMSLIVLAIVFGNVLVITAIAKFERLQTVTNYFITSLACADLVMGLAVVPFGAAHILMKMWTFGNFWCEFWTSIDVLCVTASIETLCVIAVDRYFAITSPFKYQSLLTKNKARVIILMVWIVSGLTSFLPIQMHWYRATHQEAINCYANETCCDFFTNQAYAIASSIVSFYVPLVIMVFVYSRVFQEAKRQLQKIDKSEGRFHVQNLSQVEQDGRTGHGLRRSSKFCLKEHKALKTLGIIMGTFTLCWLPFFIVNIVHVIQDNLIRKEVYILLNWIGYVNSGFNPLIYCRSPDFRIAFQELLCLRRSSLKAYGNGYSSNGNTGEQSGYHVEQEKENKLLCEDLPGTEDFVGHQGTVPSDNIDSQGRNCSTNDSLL
LANA-H2B inh – blockers of LANA interaction with H2A/H2B – biochemical, FP readout, HTS, primary screen. AID 2629, 2010. Protein LANA1 (Human herpesvirus 8 type P (isolate GK18)), Q9QR71. inhibition, % (concentration not given with the values). 0.6% of 320,000 active. cell-free LANA-H2A/H2B peptide, fluorescence polarization; in the data active = inhibition mostly above about 10%, no sharp cut-off; inactive = mostly below about 6.7%;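 also: stock transfer was 7.5 nL into about 10 µL; 0% = median of vehicle wells and 100% = median of positive control wells; one replicate is shown; the record names a cut of 25% in any replicate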
Calb FLC – C. albicans growth inhibition with fluconazole, primary screen, CaCi-2 strain, Alamar Blue fluorescence; C. albicans CaCi-2 (fluconazole-resistant clinical isolate) + fluconazole, 48 h; growth inhibition, % (no concentration beside the values); 0.57% of 300,000 active; AID 1979, 2009;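 active = most replicates above 75%; inconclusive = exactly half above 75%; inactive = most below 75%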;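 also: all wells also contain fluconazole at 8 µg/ml as a sub-toxic cotreatment; 0% = median of DMSO wells and 100% = median of geldanamycin control wells; wells of about 8 µL received 7.5 nL stock; the first replicate is given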
T cruzi repl – inhibitors of intracellular T. cruzi growth, primary screen, luminescence, NIH3T3 host cells | T. cruzi beta-gal in NIH3T3, 90 h | inhibition, % (no concentration beside the values) | 1.4% of 300,000 active | AID 1885, 2009;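 active = mean inhibition across valid replicates above about 55%, limit read from the data; inconclusive = mean below that limit but half or more replicates reach it; inactive = mean below it, under half of replicates reach it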;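 also: signal also drops with host cell toxicity which is not excluded here; 0% = plate median of DMSO wells and 100% = zero luminescence signal; higher percent means less beta-gal luminescence so fewer parasites; stock transfer was 50 nL into about 50 µL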
rRNA inh HTS OD600 – further read-out of rRNA inh HTS, marked with its call; OD600 change, %; measured here: OD600 growth;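 optical density of the mix in the first replicate; 0 = DMSO median and -100 = no signal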
rRNA inh HTS RFP – second read-out of rRNA inh HTS, no call of its own (marks repeat the call); RFP signal change, %; measured here: RFP humanized mutant strains;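 first replicate; 0 = DMSO median and -100 = no signal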
Starred values were filed as active, the others as inactive. This is a subset; count on the stated rates, not on these rows.

N#Cc1ccc(-c2ccccc2)nc1SCC(=O)c1cccc(Cl)c1 was read as Beta cell apopt -7, ALR inh 3, A1 inh -0.5, B2AR ag -51, LANA-H2B inh -1.9, Calb FLC 3 and T cruzi repl -5.
`CCCS(=O)(=O)c1c(S(=O)(=O)CCC)c2ccc(C(N)=O)cn2c1C(=O)c1ccc(OC)cc1` gave Beta cell apopt 1, ALR inh 3, A1 inh 0.0, rRNA inh HTS -6, B2AR ag -1, LANA-H2B inh -2.0, Calb FLC 23, T cruzi repl 8, rRNA inh HTS OD600 -11 and rRNA inh HTS RFP -0.3.
For O=C(Nc1ccc(Cl)cc1)C1=Cc2ccccc2OC1 the results were Beta cell apopt 4, ALR inh -23, A1 inh -5.0, B2AR ag 5, LANA-H2B inh 0.5, Calb FLC -2 and T cruzi repl -18.
O=C(CCSc1nnc(-c2ccncc2)o1)Nc1ccc(Cl)cc1 was read as Beta cell apopt 0, A1 inh 0.3, B2AR ag -19, LANA-H2B inh -1.9, Calb FLC 4 and T cruzi repl -10.
For O=C(/C=C/c1ccc(N2CCCCC2)c([N+](=O)[O-])c1)c1ccc(O)cc1 the results were Beta cell apopt 7, ALR inh 4, A1 inh 0.1, rRNA inh HTS -53, B2AR ag -7, LANA-H2B inh 0.6, Calb FLC -1, T cruzi repl 17, rRNA inh HTS OD600 -79 and rRNA inh HTS RFP -28.
For CCCc1cc(=O)oc2cc(C)cc(OC(C)C(=O)NCC3CCC(C(=O)O)CC3)c12 (stereo not drawn) the results were ALR inh -32, A1 inh 0.0, B2AR ag 1, LANA-H2B inh 3.4, Calb FLC -4 and T cruzi repl -1.
Screening NS(=O)(=O)c1ccc(CCNC(=O)CSc2ncnc3ccccc23)cc1 returned Beta cell apopt -3, ALR inh -12, A1 inh 1.0, rRNA inh HTS 8, B2AR ag -9, LANA-H2B inh 1.6, Calb FLC 5, T cruzi repl -2, rRNA inh HTS OD600 0 and rRNA inh HTS RFP 1.2.
COc1cccc(NC(=O)c2ccc(CN3CCN(c4ccccc4)CC3)cc2)c1 was read as Beta cell apopt -17, A1 inh 0.9, rRNA inh HTS -1, B2AR ag 1, LANA-H2B inh -6.0, Calb FLC 12, T cruzi repl -9, rRNA inh HTS OD600 -20 and rRNA inh HTS RFP 2.6.
Cc1ccc2c(c1)C1CN(C)CCC1N2C(=O)c1cccc(S(=O)(=O)N(C)C)c1 (stereo not drawn) was read as Beta cell apopt -1, ALR inh 12, A1 inh 0.1, rRNA inh HTS 17, B2AR ag 0, LANA-H2B inh -4.3, Calb FLC inconclusive, T cruzi repl 34, rRNA inh HTS OD600 9 and rRNA inh HTS RFP -0.3.
Screening CCN(CC)CCn1c(-c2ccc(C)cc2)nc(=S)c2c1CC(C)(C)OC2 returned Beta cell apopt -1, A1 inh -0.1, rRNA inh HTS 3, B2AR ag -2, LANA-H2B inh -2.4, Calb FLC -3, rRNA inh HTS OD600 6 and rRNA inh HTS RFP 2.4.

Sorted by length of the SMILES (low to high): 4 of the compounds above
For O=C(Nc1ccc(Cl)cc1)C1=Cc2ccccc2OC1 the results were Beta cell apopt 4, ALR inh -23, A1 inh -5.0, B2AR ag 5, LANA-H2B inh 0.5, Calb FLC -2 and T cruzi repl -18.
COc1cccc(NC(=O)c2ccc(CN3CCN(c4ccccc4)CC3)cc2)c1 was read as Beta cell apopt -17, A1 inh 0.9, rRNA inh HTS -1, B2AR ag 1, LANA-H2B inh -6.0, Calb FLC 12, T cruzi repl -9, rRNA inh HTS OD600 -20 and rRNA inh HTS RFP 2.6.
For O=C(/C=C/c1ccc(N2CCCCC2)c([N+](=O)[O-])c1)c1ccc(O)cc1 the results were Beta cell apopt 7, ALR inh 4, A1 inh 0.1, rRNA inh HTS -53, B2AR ag -7, LANA-H2B inh 0.6, Calb FLC -1, T cruzi repl 17, rRNA inh HTS OD600 -79 and rRNA inh HTS RFP -28.
Cc1ccc2c(c1)C1CN(C)CCC1N2C(=O)c1cccc(S(=O)(=O)N(C)C)c1 (stereo not drawn) was read as Beta cell apopt -1, ALR inh 12, A1 inh 0.1, rRNA inh HTS 17, B2AR ag 0, LANA-H2B inh -4.3, Calb FLC inconclusive, T cruzi repl 34, rRNA inh HTS OD600 9 and rRNA inh HTS RFP -0.3.

(cont.)
`CCCNC(=O)c1ccc2c(=O)c(O)c(-c3cccc(Br)c3)[nH]c2c1` gave Beta cell apopt 98*, ALR inh -11, A1 inh 0.2, rRNA inh HTS -9, B2AR ag -3, LANA-H2B inh -2.4, Calb FLC 114*, T cruzi repl 21, rRNA inh HTS OD600 -12 and rRNA inh HTS RFP -12.
For CCN(CCCNC(=O)C1CCC(=O)N1Cc1ccc(F)cc1)c1cccc(C)c1 (stereo not drawn) the results were Beta cell apopt 1, ALR inh 99*, A1 inh 1.0, rRNA inh HTS -22, B2AR ag -5, LANA-H2B inh -5.1, Calb FLC 0, T cruzi repl -13, rRNA inh HTS OD600 -21 and rRNA inh HTS RFP 0.0.
Screening CCn1c(SCC(=O)C(C)(C)C)nnc1-c1cccnc1 returned Beta cell apopt 4, ALR inh 9, A1 inh -0.6, rRNA inh HTS 8, B2AR ag -2, LANA-H2B inh -1.5, Calb FLC 4, T cruzi repl 1, rRNA inh HTS OD600 2 and rRNA inh HTS RFP -1.8.
Fc1ccc(Nc2ccc3ccccc3n2)c(F)c1 was read as Beta cell apopt 0, ALR inh -6, A1 inh 0.8, rRNA inh HTS -39, B2AR ag 1, LANA-H2B inh -0.1, Calb FLC 9, T cruzi repl -5, rRNA inh HTS OD600 -34 and rRNA inh HTS RFP -0.9.
CCN(CC)c1ccc(N)cc1S(=O)(=O)Nc1ccc(OC)cc1 was read as Beta cell apopt 3, ALR inh 0, A1 inh 0.4, rRNA inh HTS -1, B2AR ag 0, LANA-H2B inh 3.1, Calb FLC -3, T cruzi repl -1, rRNA inh HTS OD600 -3 and rRNA inh HTS RFP -1.8.
Screening CCOc1ccccc1C(=O)Nc1ccc(S(=O)(=O)N2CCN(C)CC2)cc1 returned ALR inh -4, A1 inh 0.5, rRNA inh HTS 1, B2AR ag -8, LANA-H2B inh 0.0, Calb FLC 6, T cruzi repl 5, rRNA inh HTS OD600 5 and rRNA inh HTS RFP -2.3.
For Cc1ccc(C(=O)OCC(=O)NCCNC(=O)COC(=O)c2ccc(C)o2)o1 the results were Beta cell apopt -1, A1 inh -0.4, rRNA inh HTS 8, B2AR ag 0, LANA-H2B inh -4.6, Calb FLC -5, T cruzi repl -3, rRNA inh HTS OD600 7 and rRNA inh HTS RFP -0.7.
Cc1ccc(S(=O)(=O)N2CCN(C(=S)NCc3ccc4c(c3)OCO4)CC2)cc1 was read as Beta cell apopt 5, ALR inh -15, A1 inh 0.6, rRNA inh HTS -3, B2AR ag 1, LANA-H2B inh -2.9, Calb FLC -27, T cruzi repl 4, rRNA inh HTS OD600 -6 and rRNA inh HTS RFP 1.3.
`COc1ccc(C)c(Cn2c(-c3nonc3N)nc3ccccc32)c1` gave Beta cell apopt 23, ALR inh 0, A1 inh 1.0, B2AR ag -4, LANA-H2B inh 2.7, Calb FLC -1 and T cruzi repl 8.
Screening COc1c(F)c(F)c(C(=O)O)c(Nc2ccc(C)cc2)c1F returned Beta cell apopt 7, ALR inh 71, A1 inh -0.8, B2AR ag 4, LANA-H2B inh 4.3, Calb FLC 15 and T cruzi repl -8.
Screening O=C(Cn1cc(S(=O)(=O)N2CCCC2)c(S(=O)(=O)N2CCCC2)c1)NCc1ccco1 returned Beta cell apopt -7, ALR inh -15, A1 inh -1.4, rRNA inh HTS 4, B2AR ag 11, LANA-H2B inh 2.0, Calb FLC 1, T cruzi repl -7, rRNA inh HTS OD600 1 and rRNA inh HTS RFP -0.1.
O=C(O/N=C1/CCSc2ccccc21)c1ccc(F)cc1 was read as Beta cell apopt -4, ALR inh 0, A1 inh 0.9, rRNA inh HTS 10, B2AR ag -2, LANA-H2B inh 4.2, Calb FLC 117*, T cruzi repl 5, rRNA inh HTS OD600 3 and rRNA inh HTS RFP -9.1.
For COc1cc2nc(CN3CCN(S(=O)(=O)c4c(F)cccc4F)CC3)[nH]c(=O)c2cc1OC the results were Beta cell apopt 1, ALR inh -8, A1 inh 1.3, rRNA inh HTS 11, B2AR ag 15, LANA-H2B inh 0.8, rRNA inh HTS OD600 9 and rRNA inh HTS RFP -1.1.
For CCCCOc1cccc(C(=O)Nc2ccc(N3CCN(CC)CC3)cc2)c1 the results were Beta cell apopt 5, ALR inh -2, A1 inh 0.1, B2AR ag 14, LANA-H2B inh -2.7, Calb FLC 9 and T cruzi repl 5.
`COc1ccc(CCNC(=O)CCc2ccc(S(=O)(=O)NC(C)C)cc2)cc1` gave Beta cell apopt 0, ALR inh -14, A1 inh 0.8, rRNA inh HTS 5, B2AR ag 1, LANA-H2B inh 3.7, Calb FLC -9, T cruzi repl 0, rRNA inh HTS OD600 3 and rRNA inh HTS RFP 1.0.
`C=CCSC1=N/C(=C\c2cc(OC)c3c(c2)OCO3)C(=O)S1` gave Beta cell apopt -4, ALR inh 10, A1 inh -1.0, B2AR ag 12, LANA-H2B inh -3.5, Calb FLC -4 and T cruzi repl -23.
Screening O=c1[nH]c2ccccc2n1C1CCCCC1 returned Beta cell apopt -1, ALR inh 10, A1 inh -0.4, B2AR ag -8, LANA-H2B inh -6.2, Calb FLC 15 and T cruzi repl -2.
For CCCSc1nc2c(c(=O)[nH]c(=O)n2C)n1CC(O)COc1ccccc1 (stereo not drawn) the results were Beta cell apopt -7, ALR inh -4, A1 inh -0.2, rRNA inh HTS 0, B2AR ag 5, LANA-H2B inh 2.6, Calb FLC -7, T cruzi repl 7, rRNA inh HTS OD600 5 and rRNA inh HTS RFP -1.1.
